Screens (PubChem BioAssay)
2A StopGo = lowers the luciferase signal of an FMDV 2A StopGo reporter | human cells with a luciferase reporter of 2A StopGo recoding; control for the full effect not named in the record | Potency, µM (top dose mostly 57.9 µM), inactives show at the highest dose signal change, negative = less light | 410,000 tested, 1.2% active | AID 1159524; active = well fitted falling curve with a large enough effect; inconclusive = small, poorly fitted or top-dose-only effect; inactive = no such curve, though single readings can be large or run the other way; tested in HEK293T cells; also: % is scaled to controls: 0 for no effect and ±100 for the full control effect; nearly all actives have a fitted effect of over 45% in size; luciferase light after 4 h
SARS PLpro yeast = blocks SARS-CoV papain-like protease in a yeast assay. Potency, µM (doses to about 32.9 µM), for the others: at the highest dose activity, positive = growth rescue. 330,000 tested, 0.19% active. S. cerevisiae expressing SARS-CoV PLpro, growth rescue; control for the full effect not named in the record; also: 0% is about no effect; nearly all actives have a fitted effect of over 55% in size; growth read by luminescence after 48 h
NS1 inh = influenza NS1 inhibition. 270,000 tested, 0.4% active. Potency, µM (titrated, usually from 46.1 µM), inactives show at the highest dose activity, positive = more growth. S. cerevisiae slowed by influenza A NS1, growth recovery by OD600. AID 2326; also: actives are rising curves; nearly all actives have a fitted effect of over 50% in size
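Read-out: OD600 growth recovery of NS1-expressing budding yeast. Cells grown overnight at 30C in -URA glucose medium, washed, resuspended and diluted 1:100 in 2% galactose assay medium, pH 6.0. Same strain lacking NS1 served as positive control.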
LASV entry inh = Lassa virus entry inhibition | 300,000 tested, 1.2% active | Potency, µM (highest dose often 37.9 µM), for the others: at the top dose activity change, negative = inhibition, usual class: inhibitors | Lassa virus pseudotype entry inhibition, cell reporter; control for the full effect not named in the record | AID 540256; active means well fitted inhibition curve with a large enough effect; inconclusive means small, poorly fitted or top-dose-only effect, or effect the other way; inactive means flat fitted curve, though single readings scatter; tested in HEK293 cells; also: % is scaled to controls: 0 for no effect and ±100 for the full control effect; nearly all actives have a fitted effect of over 50% in size; luciferase read-out
RE007 growth inh = less growth of the S. pombe RE007 Vpr strain. S. pombe RE007 Vpr strain, BacTiter-Glo ATP luminescence, 24 h; control for the full effect not named in the record. Potency, µM (highest dose often 92.2 µM), inactives show at the top dose activity change, negative = less growth. 360,000 tested, 0.21% active. AID 651644; active = well fitted falling curve with a large enough effect; inconclusive = small, poorly fitted or top-dose-only effect; inactive = no such curve, though single readings can be large or run the other way;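 also: % is scaled to controls: 0 for no effect and ±100 for the full control effect; nearly all actives have a fitted effect of over 50% in size; the assay follows cell death caused by Vpr and the record does not say whether a fall means rescue or toxicity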
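Fission yeast RE007 carrying one integrated HIV-1 vpr copy, seeded at OD 0.01 in PMG+AL medium with 23 nL pinned compound. Grown 24 h at 30 degrees; viability read by BacTiter-Glo luminescence after 5 min.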
Cruzain inh noDet = blocks cruzain activity in detergent-free assay; P25779; purified cruzain, Z-FR-AMC fluorescence, no detergent; Potency, µM, for inactives: max response, negative = inhibition, actives largely listed as inhibitors; 200,000 tested, 2.3% active; active = well fitted curve in the direction sought with a large enough effect; inconclusive = small, poorly fitted or top-dose-only effect, or another doubt; inactive = no such curve, though single readings can be large; an effect the other way counts as inactive or inconclusive;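 also: plate controls were enzyme without inhibitor for no effect and buffer without enzyme for full effect; nearly all actives have a fitted effect of over 40% in size; top concentration of the series not given in the record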
Target sequence (P25779 123-467 limits assumed): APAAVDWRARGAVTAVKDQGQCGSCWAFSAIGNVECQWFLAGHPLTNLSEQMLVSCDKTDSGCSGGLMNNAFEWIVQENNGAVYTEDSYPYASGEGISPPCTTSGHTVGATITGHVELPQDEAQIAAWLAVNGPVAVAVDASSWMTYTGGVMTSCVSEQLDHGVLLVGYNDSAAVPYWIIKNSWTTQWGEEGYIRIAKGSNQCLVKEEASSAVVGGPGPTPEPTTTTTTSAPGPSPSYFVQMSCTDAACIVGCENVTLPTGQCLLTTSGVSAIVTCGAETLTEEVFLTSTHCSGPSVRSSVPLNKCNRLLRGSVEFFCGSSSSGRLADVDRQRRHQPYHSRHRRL
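Detergent-free condition (0.00005% Triton X-100) in acetate buffer pH 5.5 with DTT. 1.5 nM enzyme and compound were pre-mixed 15 min, then 2 uM Z-FR-AMC substrate added; reaction progress from fluorescence change between first and third reads (60 s).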
Cruzain inh Det = cruzain (T. cruzi) inhibition with detergent | P25779 | purified cruzain, Z-FR-AMC fluorescence, 0.01% Triton | Potency, µM, without a hit: max response, negative = inhibition, hits mostly inhibitors | 200,000 tested, 0.43% active | AID 1478; active = well fitted curve in the direction sought with a large enough effect; inconclusive = small, poorly fitted or top-dose-only effect, or another doubt; inactive = no such curve, though single readings can be large; an effect the other way counts as inactive or inconclusive;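 also: plate controls were neutral wells for no effect and buffer without enzyme for full effect; nearly all actives have a fitted effect of over 40% in size; top concentration of the series not given in the record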
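In this qHTS format, compounds are incubated with 1.5 nM cruzain for 15 min at room temperature before 2 uM Z-FR-AMC is added. Release of AMC is followed at 360/450 nm, and progress is taken as the 60 s fluorescence difference.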
MARV entry inh = Marburg virus entry inhibition; AID 540276; Marburg virus pseudotyped entry inhibition, cell reporter; control for the full effect not named in the record; about a third of the inactives were read at about 46 µM; 300,000 tested, 1.8% active; Potency, µM (titrated, usually from 37.8 µM), inactives show top-dose activity change, negative = inhibition, actives largely listed as inhibitors; active = well fitted inhibition curve with a large enough effect; inconclusive = small, poorly fitted or top-dose-only effect, or effect the other way; inactive = flat fitted curve, though single readings scatter; tested in HEK293 cells; about a fifth of its hits are not listed in these tables; also: % is scaled to controls: 0 for no effect and ±100 for the full control effect; luciferase read-out
An asterisk follows results filed as active; u = inconclusive; x = not tested or not shown; & = joins results of further samples; [ ] = dose if it differs, or a comment. Unless noted, calls follow the shape of the dose curve; as a rule, active means well fitted rising curve with a large enough effect; inconclusive means small, poorly fitted or top-dose-only effect; inactive means no such curve, though single readings can be large or run the other way. Potency is read from the fitted curve at half-maximal effect.

#	smiles	Cruzain inh Det	NS1 inh	LASV entry inh	MARV entry inh	Cruzain inh noDet	RE007 growth inh	2A StopGo	SARS PLpro yeast
1	CCSc1nc2sc3c(c2c2[n+]1CC(CBr)O2)CCCC3 (stereo not drawn)	x	2%	-6%	u	x	2%	-27%	0%
2	CCN(CC)c1ccc(C(=O)OCC(=O)c2ccco2)cc1	6.7%	1%	x	13%	-5%	-18%	70%[activator]	-2%
3	CNc1cc(CSC)nc(SCc2ccc(Cl)cc2Cl)n1	-2.2%	-163%	0%	u	8%	-8%	x	-41%
4	COc1ccc(N(C(=O)c2cnccn2)C(C(=O)NC2CCCCC2)c2cc(OC)c(OC)c(OC)c2)cc1 (stereo not drawn)	x	0%	-25%[46.1 µM]	-1%[46.1 µM]	x	2%	5%	2%
5	Cc1[nH]nc2c1C1(CCN(C(=O)OCc3ccccc3)CC1)C(C#N)=C(N)O2	-1.7%	-15%	-7%	2%&-2%	-2%	1%	-4%	6%
6	OCC1(Cc2cccc(F)c2)CCN(Cc2cccc3nccnc23)CC1	x	3%	5%[46.1 µM]	u	x	-13%	-21%	1%
7	COc1cc2oc(=O)c(CC(=O)NCc3ccc(OC)c(OC)c3)c(C)c2cc1Cl	-2.1%	x	8%[46.1 µM]	15%[46.1 µM]	6%	x	-13%	x
8	CC(=O)c1ccc(NC(=O)/C(=C\c2ccco2)NC(=O)c2ccco2)cc1	x	18%	0%[46.1 µM]	0%[46.1 µM]	x	-13%	15%	-1%
9	Cc1ccc(OCC(=O)NC2CCCc3ccccc32)c(C)c1 (stereo not drawn)	-9.6%	-10%	u	u	2%	-5%	-15%	-31%
10	Oc1ccc(-c2nc(-c3ccccc3)c(-c3ccc(Br)cc3)[nH]2)cc1	-9.1%	x	-24%[46.1 µM]	9%[46.1 µM]	u	x	-10%	x
11	Cc1noc(C)c1S(=O)(=O)N1CCC(C(=O)N2CCN(c3ccccc3Cl)CC2)CC1	-6.2%	u	10%	3%	23%	14%	-26%	-1%
12	O=C(NC1CC(=O)N(c2ccc(Cl)cc2)C1)c1cc2ccccc2o1 (stereo not drawn)	-1.2%	x	-22%[46.1 µM]	x	7%	x	-13%	x
13	Cc1ccn(-c2ccc(NC(=O)c3cccs3)cc2)n1	x	-71%	u	u	x	u	17%	-10%
14	Cc1ccccc1NC(=O)/C(C#N)=C/c1ccc(-c2ccc(Cl)c(C(=O)O)c2)o1	x	u	1%[46.1 µM]	14%[46.1 µM]	x	1%	1%	12%
15	CC(=O)c1ccc(N2CCN(C3CCC(C(C)(C)C)CC3)CC2)cc1 (stereo not drawn)	x	-10%	-1%	2%	x	-4%	u	4%
16	O=C(NCc1cccc(Cl)c1)C1CCN(c2nn3cc(-c4ccc(F)cc4)nc3s2)CC1	0.5%	x	24%[46.1 µM]	x	5%	x	31%[activator]	x
17	CCOc1cc2c3c(c1)C(C)CC(C)(C)N3C(=O)C2=O (stereo not drawn)	-1.4%	0%	-19%[14.3 µM]	u	u	6%	16%	-7%
18	c1ccc(-c2nc(-c3cccc4ccccc34)c(Nc3ccc4ccccc4c3)o2)cc1	0.5%	x	u	u	-23%	x	x	x
19	COc1cc(/C=N/n2c(-c3ccccc3)n[nH]c2=S)cc(OC)c1O	x	6%	-15%	-5%[46.1 µM]	x	8%	26%	1%
20	CC(Sc1ncccn1)C(=O)Nc1ccc2c(c1)OCCO2 (stereo not drawn)	x	x	10%[46.1 µM]	u	x	-17%	34%[activator]	1%
21	COc1ccc(CCNC(=O)c2cc(=O)[nH]c3ccc(S(=O)(=O)N4CCCCC4)cc23)cc1OC	0.6%	x	24%[46.1 µM]	x	6%	x	-5%	x
22	O=C(Nc1nnc(C23CC4CC(CC(C4)C2)C3)s1)c1ccc(N2C(=O)CCC2=O)cc1	-8.9%	2%	x	-1%	u	-7%	-20%	6%
23	COc1ccc(C2=NN(C(=O)c3ccccc3)C(c3ccc(OC)c(OC)c3)C2)c(O)c1 (stereo not drawn)	x	2%	-26%	2%	x	7%	u	1%
24	Cc1cc(NS(=O)(=O)c2ccc(NC(=O)C(c3ccccc3)c3ccccc3)cc2)no1	-18%	6%	7%	-2%	1%	5%	-1%	8%
25	CCOC(=O)c1c(NC(=O)CCl)sc(CN(C)C)c1-c1ccccc1	x	x	-22%	u	x	9%	35µM*	2%
26	CCOc1ccc(N(C)S(=O)(=O)c2ccc(C)c(C(=O)OCC(=O)c3c[nH]c4ccccc34)c2)cc1	x	-1%	7%	1.4µM*	x	11%	-12%	1%
27	OCC1(Cc2ccccc2)CCN(Cc2cnn(-c3ccccc3F)c2)CC1	x	0%	-6%	u	x	-14%	-7%	1%
28	CCN1CCN(C(=O)NC(c2ccc(C)c(F)c2)C(Cl)Cl)CC1 (stereo not drawn)	x	x	9%	19%[46.1 µM]	x	-4%	1%	u
29	O=C1/C(=C/c2ccc(F)c(F)c2)CSc2sccc21	-13%	-10%	0%	2%	-4%	u	-22%	-6%
30	Cc1ccc(NC(=O)CN2C(=O)N/C(=C/c3cc(C)n(-c4ccc(C(=O)O)cc4)c3C)C2=O)cc1	x	x	0%	u	x	-6%	-1%	3%

(list continues)
#	smiles	Cruzain inh Det	NS1 inh	LASV entry inh	MARV entry inh	Cruzain inh noDet	RE007 growth inh	2A StopGo	SARS PLpro yeast
31	Cc1ccc(-c2cc(C(=O)N/N=C/C=C/c3ccccc3)n[nH]2)o1	-9.8%	17%	-19%	5%	2%	-3%	-9%	18%
32	COC(=O)c1sccc1S(=O)(=O)N(CC(=O)NCc1ccc(F)cc1)c1ccc(Cl)cc1	-7.6%	x	u	x	4%	x	21%	x
33	[O-]/C(=C(\C(=S)Nc1ccccc1F)[n+]1ccccc1)c1ccc(-c2ccccc2)cc1	x	0%	3%	23%	x	-22%	34%[activator]	-2%
34	CC1N(C(=O)N(C)C)CCN1S(=O)(=O)c1ccccc1 (stereo not drawn)	x	5%	-2%[46.1 µM]	3%[46.1 µM]	x	3%	8%	-2%
35	COc1ccccc1N1CCN(S(=O)(=O)c2cc(-c3cc(C)no3)ccc2C)CC1	-2.2%	x	-18%[46.1 µM]	x	30%	x	-26%	x
36	COCCn1c(SCC(=O)Nc2ccc(OC)c(S(N)(=O)=O)c2)nc2ccccc2c1=O	x	x	-11%	0%[46.1 µM]	x	17%	7%	x
37	CCCCN1Cc2ccccc2Oc2cc(Br)ccc2S1(=O)=O	x	x	u	x	x	-5%	-19%	-38%
38	NC(=O)COc1ccc(NC(=O)OCc2ccccc2)cc1	4.9%	-9%	29%	7%	-5%	5%	50%[activator]	0%
39	C[C@]12C=CC(=O)C=C1CCC1C2CC[C@@]2(C)C1CCC21OCCO1 (stereo partly drawn)	x	x	-2%[46.1 µM]	4%[46.1 µM]	x	13%	u	-7%
40	CCN(CC)CCCNc1nc2cc(OC)c(OC)cc2c2nc(-c3ccccc3)nn12	4.2%	2%	u	u	7%	-7%	-11%	3%
41	CCOc1ccc2c(c1)nc(SCC(=O)c1ccc(Br)s1)n2C	4.0%	22%	u	u	25µM*	-4%	44%[activator]	26%
42	CC1CN(C(C)C)C(=S)N(c2ccccc2)C1=O (stereo not drawn)	x	x	-8%[46.1 µM]	23%[46.1 µM]	x	5%	-13%	x
43	NS(=O)(=O)c1ccc(NC(=O)c2ccc(CSc3ccccc3)o2)cc1	x	7%	-14%	u	x	9%	-10%	-3%
44	CC1(C)CC(=O)C(C=NCCN2CCN(C3CC(=O)N(c4ccc(Cl)c(Cl)c4)C3=O)CC2)=C(O)C1 (stereo not drawn)	x	-49%	2%	-17%[46.1 µM]	x	10µM*	u	-6%
45	Cn1nnc2c(NCCc3ccccc3)ncnc21	-0.2%	x	27%[46.1 µM]	x	-13%	x	3%	x
46	CCOC(=O)N1CCN(S(=O)(=O)c2c[nH]c(C(=O)OC)c2)CC1	x	-9%	x	x	x	1%	-19%	1%
47	Cn1c(CSc2ncccn2)nnc1SCC(=O)N1CCCc2ccccc21	1.0%	3%	8%	21%	5%	3%	-14%	-2%
48	COc1ccc2nc(SCC(=O)Nc3cc(C)on3)[nH]c2c1	-6.2%	4%	-6%	-4%	-14%	99%	-13%	11%
49	CCCCCN(C(=O)CCC(=O)OC(C)C(=O)c1ccccc1)c1c(N)n(CCCC)c(=O)[nH]c1=O (stereo not drawn)	x	x	5%	24%	x	-19%	-2%	0%
50	CCCCNC(=O)COC(=O)c1ccccc1F	x	0%	u	8%[46.1 µM]	x	-13%	12%	0%
51	Cn1nnnc1SCC(=O)Nc1ccc(S(=O)(=O)N2CCOCC2)cc1	x	5%	x	x	x	-4%	-11%	-1%

Compound profiles, from the list above. Order of screens: Cruzain inh Det | NS1 inh | LASV entry inh | MARV entry inh | Cruzain inh noDet | RE007 growth inh | 2A StopGo | SARS PLpro yeast
COc1ccc2nc(SCC(=O)Nc3cc(C)on3)[nH]c2c1 is listed as -6.2% | 4% | -6% | -4% | -14% | 99% | -13% | 11%
CC1CN(C(C)C)C(=S)N(c2ccccc2)C1=O (stereo not drawn) is listed as x | x | -8%[46.1 µM] | 23%[46.1 µM] | x | 5% | -13% | x
CC1(C)CC(=O)C(C=NCCN2CCN(C3CC(=O)N(c4ccc(Cl)c(Cl)c4)C3=O)CC2)=C(O)C1 (stereo not drawn) is listed as x | -49% | 2% | -17%[46.1 µM] | x | 10µM* | u | -6%
